Screening data deposited in PubChem BioAssay by several laboratories.
T cruzi repl: T. cruzi replication inhibition; T. cruzi beta-gal in NIH3T3, luminescence, 90 h; 300,000 tested, 1.4% active; AID 1885; inhibition, % (test concentration not listed);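 active = mean inhibition across valid replicates above about 55%, limit read from the data; inconclusive = mean below that limit but half or more replicates reach it; inactive = mean below it, under half of replicates reach it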;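 note: signal also drops with host cell toxicity which is not excluded here; 0% = plate median of DMSO wells and 100% = zero luminescence signal; higher percent means less beta-gal luminescence so fewer parasites; stock transfer was 50 nL into about 50 µL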
FGF22 binding: binders of recombinant human FGF22 by thermal shift. Q9HCT0. SYPRO orange fluorescence; percent of sucrose octasulfate shift, DMSO zero. calls only at 9.99 µM. 340,000 tested, 1.5% active. AID 651658;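 active = melting point raised past a set limit in the mean and every replicate; inconclusive = no clear call; three in four hits are not shown here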
Target sequence (Q9HCT0 whole entry, looked up): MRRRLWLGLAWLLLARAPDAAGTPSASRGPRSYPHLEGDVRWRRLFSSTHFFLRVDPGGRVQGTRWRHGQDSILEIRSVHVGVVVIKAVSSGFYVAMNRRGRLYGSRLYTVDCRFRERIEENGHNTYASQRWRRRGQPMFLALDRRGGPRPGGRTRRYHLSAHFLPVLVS
MLL AF4-AF9 inh: inhibitors of human MLL-AF4/AF9 interaction; P42568; AlphaScreen, biotin-AF4 peptide binding to FLAG-AF9; inhibition, % at 10 µM; 350,000 tested, 0.47% active;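 active = every replicate reaching a set inhibition limit, whatever the replicate mean, cut at about 25% in these data; inconclusive = mean inhibition reaches that limit but some replicates miss it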;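 note: 0% = plate neutral control median and 100% = total signal loss; the record names both 10 and 1 µM as test concentration; the first replicate is given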
Target sequence (P42568 whole entry, looked up): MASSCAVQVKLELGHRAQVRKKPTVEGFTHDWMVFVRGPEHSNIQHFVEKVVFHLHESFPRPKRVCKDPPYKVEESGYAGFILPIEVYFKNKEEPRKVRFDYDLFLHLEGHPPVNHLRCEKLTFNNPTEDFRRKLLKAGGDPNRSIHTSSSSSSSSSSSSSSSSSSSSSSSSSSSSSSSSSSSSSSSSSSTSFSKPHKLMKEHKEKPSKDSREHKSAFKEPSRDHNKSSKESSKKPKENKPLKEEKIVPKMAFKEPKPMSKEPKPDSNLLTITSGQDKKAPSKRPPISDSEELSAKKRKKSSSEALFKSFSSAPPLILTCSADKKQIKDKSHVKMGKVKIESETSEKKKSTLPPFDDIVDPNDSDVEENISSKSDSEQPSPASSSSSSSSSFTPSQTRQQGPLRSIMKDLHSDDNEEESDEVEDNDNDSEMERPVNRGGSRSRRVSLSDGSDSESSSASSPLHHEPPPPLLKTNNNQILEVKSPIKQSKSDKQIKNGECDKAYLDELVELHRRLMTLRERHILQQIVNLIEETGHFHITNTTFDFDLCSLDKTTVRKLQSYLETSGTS
rRNA inh HTS: inhibits bacterial ribosomal RNA function over humanized ribosomes. E. coli WT GFP vs humanized-ribosome RFP mutants, fluorescence, 24 h; hits give low values; DMSO median 0, no signal -100. GFP signal change (wild-type ribosome), % (concentration not given with the values). 350,000 tested, 1.6% active;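 active = significant combined selectivity score with lowered wild-type GFP, culture density cut under 30%, mutant RFP and density less affected; inactive = any of these conditions unmet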; note: one replicate is shown; some compounds called inactive have numbers as strong as hits
Ecoli growth: blocks Escherichia coli growth | OD600, 23 h; hits give low values | OD600 absorbance (no concentration beside the values) | 330,000 tested, 0.21% active;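 active = OD600 absorbance below the run mean of sample wells minus 3.6 SD, in any replicate, cut at about 0.56 in these data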;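 note: stock transfer was 300 nL into about 60 µL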
UCH37 DUB inh: human UCH37 deubiquitinating enzyme inhibition | Q9Y5K5 | purified proteasome/UCH37, Ub-AMC cleavage fluorescence | inhibition, % (no concentration beside the values) | 330,000 tested, 0.33% active | AID 588478;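 active = mean of two replicates above 20%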;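 note: 0% = compound-free wells with enzyme and 100% = wells lacking proteasome; stock transfer was 100 nL into about 20 µL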
Target sequence (Q9Y5K5 whole entry, looked up): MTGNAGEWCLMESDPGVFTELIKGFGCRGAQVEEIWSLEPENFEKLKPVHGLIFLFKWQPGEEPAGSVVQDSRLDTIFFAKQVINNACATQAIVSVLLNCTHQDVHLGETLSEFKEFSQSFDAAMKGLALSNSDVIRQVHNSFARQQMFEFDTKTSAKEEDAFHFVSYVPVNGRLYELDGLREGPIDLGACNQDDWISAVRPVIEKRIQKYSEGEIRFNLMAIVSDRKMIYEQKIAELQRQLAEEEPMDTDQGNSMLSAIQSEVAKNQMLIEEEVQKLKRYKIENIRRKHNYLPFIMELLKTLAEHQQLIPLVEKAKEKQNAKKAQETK
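system = Proteasome-associated human UCH37 deubiquitinase | amount = 0.15 nM proteasome as dispensed | medium = pH 7.4 Tris-HCl (50 mM) with ovalbumin, ATP-MgCl2, DTT | incubation = 30 min preincubation with enzyme, 25 min cleavage at room temperature | detection = AMC fluorescence 355/460 nm | read-out basis = percent inhibition | controls = no-proteasome and no-compound wells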
Beta apoptosis: beta cell apoptosis inhibition | AID 435005 | protection from apoptosis, % (test concentration not listed) | 300,000 tested, 0.8% active | INS-1E cytokine-induced death, ATP luminescence, 48 h; percent of positive-control rescue, neutral wells zero;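 active = all replicates at 75% or more, or half of them and the mean; inconclusive = half reach 75% but not the mean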;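 note: 0% = cytokine-treated negative control wells and 100% = positive control rescue; higher means more ATP so stronger rescue from cytokine killing; wells of about 40 µL received 100 nL stock; the first replicate is given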
A1 inh: inhibitors of the anti-apoptotic protein A1, read as caspase activation. MEF A1-2A-BIM cells, Caspase-Glo 3/7 luminescence, 3 h; percent of clofoctol response, vehicle zero. caspase activation, % (no concentration beside the values). 330,000 tested, 0.066% active;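 active = over half of replicate activation scores above 10%, or exactly half above 10 with the replicate mean above 10; inconclusive = replicate mean below 10 yet half the replicates above 10; inactive = over half of replicates below 10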;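 note: wells of about 30 µL received 50 nL stock; many hits fall short of the cut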
rRNA inh HTS OD600: further read-out of rRNA inh HTS, marked with its call; OD600 change, %; measured here: OD600 growth;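 optical density of the mix in the first replicate; 0 = DMSO median and -100 = no signal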
rRNA inh HTS RFP: also measured in rRNA inh HTS; calls as there; RFP signal change, %; measured here: RFP humanized mutant strains;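 first replicate; 0 = DMSO median and -100 = no signal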
An asterisk follows results filed as active; i = inactive; ? = inconclusive; . = not tested or not shown.

structure,T cruzi repl,FGF22 binding,MLL AF4-AF9 inh,rRNA inh HTS,rRNA inh HTS OD600,rRNA inh HTS RFP,Ecoli growth,UCH37 DUB inh,Beta apoptosis,A1 inh
Cc1cc2ccccn2c1C(=O)c1ccccc1F,2,i,7.2,-10,-28,-4.0,0.63,-18,-2,-0.1
Cc1cc(Br)ccc1NC(=O)CN(C)C(=O)CCSc1ccc(F)cc1,-3,i,-1.3,5,-1,2.5,0.62,0.4,-9,0.3
C/C(=C\c1ccccc1)C(=O)Nc1nccs1,-26,i,6.1,5,3,-1.5,0.64,4.3,.,.
CCOc1ccc(-n2cc(C(=O)c3cc(Cl)ccc3O)cc(C#N)c2=O)cc1,-5,i,1.4,-58,-81,-21,0.63,-3.4,.,0.3
CC[C@H](C)[C@@H]1NC(=O)c2cc([N+](=O)[O-])cc(F)c2NCCCC[C@@H](C(N)=O)NC(=O)[C@H](CCCCN)NC1=O,-7,i,?,-3,5,1.9,.,2.5,-5,-0.6
CSCCC(NS(=O)(=O)c1ccc2c(c1)Cc1cc(S(=O)(=O)NC(CCSC)C(=O)O)ccc1-2)C(=O)O (centres undefined),5,.,-4.4,-2,-4,-3.5,0.69,-0.3,.,0.5
O=C(Cc1ccccc1[N+](=O)[O-])NCCc1ccc(F)cc1,-16,i,-6.0,9,6,0.4,0.63,0.2,-2,-0.2
CN(C)S(=O)(=O)c1ccc(NC(=O)c2cc(-c3cccs3)nc3ccccc23)cc1,38,i,0.0,-1,-4,-1.2,0.74,-108,2,0.2
O=C(CCS(=O)(=O)c1ccccc1)Nc1ccc2c(c1)C(=O)NC2=O,-1,i,-0.5,8,3,1.4,.,.,-1,0.4
O=C(Nc1nnc(C2=COCCO2)o1)c1cccc(Br)c1,28,i,-1.0,-57,-77,-19,0.48*,3.2,-8,1.5
Nc1nonc1-n1nnc(C(=O)N/N=C/c2ccccc2Cl)c1CSc1ccccc1,12,i,-6.4,-18*,-8.9*,6.3*,.,.,.,-0.3
O=c1[nH]cc(N=Cc2cc(Cl)cc(Cl)c2O)c(=O)[nH]1,-23,i,-8.2,-3,-4,-2.5,0.64,5.1,-4,0.0

(listing goes on)
structure,T cruzi repl,FGF22 binding,MLL AF4-AF9 inh,rRNA inh HTS,rRNA inh HTS OD600,rRNA inh HTS RFP,Ecoli growth,UCH37 DUB inh,Beta apoptosis,A1 inh
COc1ccc(NC(=O)CC2C(=O)N(C)C(=S)N2Cc2ccco2)cc1 (centres undefined),-11,.,.,.,.,.,0.7,5.4,0,-0.7
O=C(c1ccc(Cl)nc1)N1CCN(C/C=C/c2ccccc2)CC1,2,i,1.1,-2,-1,-0.2,0.69,4.2,5,-0.1
CCCc1nnc(SCC(=O)Nc2ccc(OC)cc2)n1N,-6,.,.,.,.,.,0.67,2.7,-3,-0.1
O=C(c1ccncc1)N1CCN(c2ccc(F)cc2)CC1,-2,.,.,.,.,.,0.69,0.6,.,1.6
O=C(COc1ccccc1)Nc1cc2c3c(c1)CC(=O)N3CCC2,-12,i,3.3,3,4,2.3,0.67,2.3,0,-0.3
COc1cc(OC)cc(C(=O)NNC(=O)c2ccc3ccccc3n2)c1,.,i,-22,3,6,1.2,0.73,1.3,.,.
CC(C)(C)c1ccc(/C=C(\C#N)C(=O)NCCN2CCOCC2)cc1,4,i,0.8,2,8,0.7,0.71,5.3,-15,1.9
O=C1C=C(c2cc(Cl)cc(Cl)c2)C[C@@H](c2ccc(F)cc2)C1,.,i,2.0,0,-11,-18,.,1.7,3,-0.4
CC1CCc2nn(CC(=O)NCCN3CCCCC3C)cc2C1 (centres undefined),9,i,1.4,15,16,1.6,0.76,5.9,-9,0.0
O=C(N/N=C/c1ccncc1)c1ccc2c(c1)OCO2,-4,i,-1.1,10,15,-2.1,.,.,5,1.6
CCCCCc1cc(=O)oc2c(C(CCN3CCCC(C)C3)c3ccc(OC)cc3)c(OC)cc(OC)c12 (centres undefined),66*,i,8.4,-37*,-12*,13*,.,.,109*,0.6
O=C(NCc1cccnc1)C(=O)NCC1OCCN1S(=O)(=O)c1ccc(F)cc1 (centres undefined),-10,i,-2.7,-3,5,-2.1,0.75,0.8,3,-1.2

(list continues)
structure,T cruzi repl,FGF22 binding,MLL AF4-AF9 inh,rRNA inh HTS,rRNA inh HTS OD600,rRNA inh HTS RFP,Ecoli growth,UCH37 DUB inh,Beta apoptosis,A1 inh
COc1ccc(NC(=O)NC2(C(=O)N3CCCCC3)CCCCC2)cc1,-8,i,-3.1,8,11,-0.6,0.68,2.4,-4,-0.4
O=C(CNS(=O)(=O)c1cccc(Br)c1)NCCCc1ccccc1,16,i,-0.3,.,.,.,0.67,2.1,-3,0.3
O=C(CCN1C(=O)c2ccccc2C1=O)N1CCN(C2c3ccccc3-c3ccccc32)CC1,9,.,.,.,.,.,0.69,3.3,6,0.2
CC[C@]12c3[nH]c4ccc(OC)cc4c3CCN1C(=O)C(CC(=O)NCCCOC)C[C@@H]2C(=O)N1CCN(C(=O)C2CC2)CC1 (some centres undefined),.,i,0.6,6,15,-1.9,0.71,2.2,.,.
CCN1CCN(c2cc3c(nn2)Oc2ccccc2N3C)CC1,16,.,.,.,.,.,0.71,-428,-7,0.2
CCCCc1c(C)[nH]c2nc3ccccc3n2c1=O,-9,i,2.0,-2,8,-0.3,0.61,-21,6,-0.1
O=C(c1ccc(Cl)c(S(=O)(=O)N2CCOCC2)c1)N1CCCC1,-2,i,-16,-2,-2,0.4,0.67,1.4,-1,0.9
c1ccc(-c2csc3ncn4nnnc4c23)cc1,-10,.,.,.,.,.,0.71,1.1,-2,1.8
O=C(N/N=C/c1ccc(OC(F)F)cc1)c1ccc(CSc2nc3ccccc3[nH]2)cc1,18,i,-5.7,-15,-7,2.2,.,.,-1,-0.2
COc1cc2[nH]c(=S)nc(NCCc3ccc(S(N)(=O)=O)cc3)c2cc1OC,-11,.,-5.5,0,6,1.4,0.68,5.9,-6,0.1
O=C(COC(=O)c1ccccc1-c1ccccc1[N+](=O)[O-])c1ccccc1,3,.,.,.,.,.,0.79,0.6,-1,0.4
Oc1ccccc1N1CCN(C(=S)NCc2ccccc2)CC1,-10,i,-9.9,0,-2,1.3,.,.,-1,0.3

Other entries.
structure,T cruzi repl,FGF22 binding,MLL AF4-AF9 inh,rRNA inh HTS,rRNA inh HTS OD600,rRNA inh HTS RFP,Ecoli growth,UCH37 DUB inh,Beta apoptosis,A1 inh
CC1CCCCC1NC(=O)CN1C(=O)NC(C)(c2ccc(OC(F)F)cc2)C1=O (centres undefined),-8,.,.,.,.,.,0.59,1.7,0,0.3
N#Cc1c(NC(=O)CCCN2C(=O)c3ccccc3C2=O)oc(-c2ccccc2)c1-c1ccccc1,12,.,.,.,.,.,0.67,1.7,-8,0.2
O=C(Cc1ccccc1)Nc1nc2ccccc2[nH]1,14,i,1.5,-2,0,0.3,0.68,3.7,-3,0.2
O=C(/C=C/c1ccccc1)Nc1ccc(Br)cn1,-65,i,0.5,13,12,-3.3,0.7,-3.3,26,-4.0
Cc1ccccc1NC(=O)CSc1ccc(-c2cccnc2)nn1,-13,i,-0.3,3,2,4.3,0.69,-0.1,-3,-0.2
CC(C)(C)OC(=O)N[C@@H](Cc1ccccc1)C(=O)N[C@@H](CO)[C@H](O)[C@@H]1C[C@@H]1C(=O)N1CCCC1,-9,i,0.2,8,11,18,.,-0.7,-1,0.1
COCc1cc(C)nc(SCC(=O)Nc2nc(C)cs2)c1C#N,1,i,-2.7,-13,-17,1.7,0.66,0.1,5,-6.0
CCOC(=O)c1c(CC(C)C)csc1NC(C)=O,-24,.,.,.,.,.,0.7,-0.5,.,0.0
CCC(=O)Nc1sc(C(=O)Nc2ccccc2F)c(C)c1C(=O)OC,-3,i,-1.7,11,11,2.3,0.69,1.8,-1,-1.1
O=C(COC(=O)Cn1cnc2ccccc2c1=O)NCc1ccccc1,.,i,-0.4,3,1,2.7,0.65,0.3,.,.
CCOc1cc(/C=N/NC(=O)c2nnn(-c3nonc3N)c2C)ccc1OCc1cccc(F)c1,-1,i,-3.0,11,16,-0.4,.,.,7,-1.5
COc1ccccc1C1(CCNC(C)c2cccs2)CCOC(C(C)C)C1 (centres undefined),40,i,4.3,-23,-33,0.4,0.66,3.7,-3,0.1

(listing goes on)
structure,T cruzi repl,FGF22 binding,MLL AF4-AF9 inh,rRNA inh HTS,rRNA inh HTS OD600,rRNA inh HTS RFP,Ecoli growth,UCH37 DUB inh,Beta apoptosis,A1 inh
CCOc1ccccc1NC(=O)C1C2C=CC(O2)C1C(=O)O (centres undefined),0,.,.,.,.,.,0.69,1.2,-9,0.1
O=C(CCC(=O)c1cccs1)NCc1cccc(Cl)c1,-9,i,-2.1,0,0,0.5,0.62,1.6,-3,0.0
COC(=O)C1N[C@@H]([C@@H](NC(=O)COc2ccccc2)C(=O)NC2CC2)SC1(C)C (some centres undefined),-8,i,-3.7,1,7,-2.8,.,2.1,2,0.6
Cc1ccc(S(=O)(=O)NC(CC(N)=O)C(=O)O)cc1 (centres undefined),.,.,.,.,.,.,0.76,5.7,-4,0.3
COCCCN=CC1=C(O)CC(C)(C)CC1=O,2,.,.,.,.,.,0.67,2.2,-1,?
CCCOc1ccc(C(=O)C(CN2CCOCC2)c2ccccc2)cc1 (centres undefined),-9,.,.,.,.,.,0.65,2.2,79*,0.0
CC(Cl)C(=O)N1c2ccccc2CCc2ccccc21 (centres undefined),-6,i,0.4,-21,-21,-2.9,0.68,1.4,.,0.3
CCOC(=O)c1c(NC(=O)CN2C(=O)CN(C)C2=O)sc(C)c1C,-1,i,-2.5,0,-1,-2.1,0.69,1.6,-6,0.2
CS(=O)(=O)Nc1ccc(N2CCN(c3ccc(C(F)(F)F)cn3)CC2)nc1,8,i,3.0,8,15,8.2,0.67,-3.2,5,0.0
Cc1nn(-c2ccc(Cl)cc2Cl)c(C)c1C(=O)O,2,i,-2.7,0,1,-2.0,0.69,2.0,-4,-0.9
O=C(O)c1c(N2CCCCC2)ccc([N+](=O)[O-])c1N1CCCCC1,-2,i,1.9,-3,-8,-1.1,0.65,7.9,-3,-0.2
O=C(COC(=O)c1cc2ccccc2cc1O)Nc1ccccc1F,.,i,-17,4,7,-1.0,0.71,4.9,0,-2.1

(next part)
structure,T cruzi repl,FGF22 binding,MLL AF4-AF9 inh,rRNA inh HTS,rRNA inh HTS OD600,rRNA inh HTS RFP,Ecoli growth,UCH37 DUB inh,Beta apoptosis,A1 inh
O=C(NCC1(c2ccccc2)CCOCC1)c1cccs1,-5,i,-2.0,5,-1,0.9,0.67,0.0,-7,-0.4
O=C(/C=C/c1ccc2c(c1)OCO2)N1CCCCC1,9,i,2.9,4,13,5.3,0.59,-21,-2,-2.6
Cc1ccc(Cn2cccc2/C=C2/C(=N)N3C=CSC3=NC2=O)cc1,-6,i,0.4,13,0,11,0.7,-2.4,3,2.4
Cc1sc2ncn(CC(=O)NCCCN3CC(C)CC(C)C3)c(=O)c2c1S(=O)(=O)N1CC(C)CC(C)C1 (centres undefined),-133,i,0.6,5,0,-4.4,0.65,0.8,-7,-0.2
CCCCN1CCN=C1N(C)C,.,i,2.0,18,10,-2.3,0.7,-1.1,-2,0.8

Some of the compounds tested (hit frequency here may not be typical).
